Assay outcomes: PubChem BioAssay, National Center for Advancing Translational Sciences (NCATS)
Lassa entry inh – blocks Lassa virus binding to or entry into cells. Lassa virus pseudotype entry inhibition, cell reporter; control for the full effect not named in the record. Potency, µM (doses to about 37.9 µM), for inactives: top-dose activity change, negative = inhibition, hits mostly inhibitors. actives 1.2% (n = 300,000). AID 540256; active means well fitted inhibition curve with a large enough effect; inconclusive means small, poorly fitted or top-dose-only effect, or effect the other way; inactive means flat fitted curve, though single readings scatter; tested in HEK293 cells; further: on the % scale 0 is the no-effect control and ±100 the full control effect; nearly all actives have a fitted effect of over 50% in size; luciferase read-out
RE007 growth inh – less growth of the S. pombe RE007 Vpr strain; S. pombe RE007 Vpr strain, BacTiter-Glo ATP luminescence, 24 h; control for the full effect not named in the record; Potency, µM (series often up to 92.2 µM), for inactives: at the highest dose activity change, negative = less growth; actives 0.21% (n = 360,000); active = well fitted falling curve with a large enough effect; inconclusive = small, poorly fitted or top-dose-only effect; inactive = no such curve, though single readings can be large or run the other way;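 further: on the % scale 0 is the no-effect control and ±100 the full control effect; nearly all actives have a fitted effect of over 50% in size; the assay follows cell death caused by Vpr and the record does not say whether a fall means rescue or toxicity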
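Fission yeast RE007 carrying one integrated HIV-1 vpr copy, seeded at OD 0.01 in PMG+AL medium with 23 nL pinned compound. Grown 24 h at 30 degrees; viability read by BacTiter-Glo luminescence after 5 min.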
NS1 inh – influenza NS1 inhibition; AID 2326; actives 0.4% (n = 270,000); Potency, µM (series often up to 46.1 µM), for inactives: at the top dose activity, positive = more growth; S. cerevisiae slowed by influenza A NS1, growth recovery by OD600; further: actives are rising curves; nearly all actives have a fitted effect of over 50% in size
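Compounds were scored for reversing the slow growth caused by influenza A NS1 in S. cerevisiae, measured by optical density at 600 nm. Assay medium contained 2% galactose at pH 6.0; NS1-free yeast of the same strain were the positive control.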
Cruzain noTriton – cruzain (T. cruzi) inhibition without detergent. AID 1476. purified cruzain, Z-FR-AMC fluorescence, no detergent. actives 2.3% (n = 200,000). Potency, µM, for the others: max response, negative = inhibition, usual class: inhibitors; active means well fitted curve in the direction sought with a large enough effect; inconclusive means small, poorly fitted or top-dose-only effect, or another doubt; inactive means no such curve, though single readings can be large; an effect the other way counts as inactive or inconclusive;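 further: plate controls were enzyme without inhibitor for no effect and buffer without enzyme for full effect; nearly all actives have a fitted effect of over 40% in size; top concentration of the series not given in the record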
Target sequence (P25779 123-467 limits assumed): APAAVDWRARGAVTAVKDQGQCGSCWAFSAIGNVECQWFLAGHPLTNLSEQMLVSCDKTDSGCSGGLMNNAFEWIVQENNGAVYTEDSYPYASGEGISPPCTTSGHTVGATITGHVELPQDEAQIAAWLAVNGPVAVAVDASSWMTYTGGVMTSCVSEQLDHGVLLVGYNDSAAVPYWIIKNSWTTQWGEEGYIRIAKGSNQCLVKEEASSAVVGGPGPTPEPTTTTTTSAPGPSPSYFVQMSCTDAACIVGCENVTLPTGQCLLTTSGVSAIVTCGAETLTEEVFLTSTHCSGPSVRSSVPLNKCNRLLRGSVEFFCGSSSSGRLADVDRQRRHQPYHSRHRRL
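Purified cruzain at 1.5 nM, pre-incubated 15 min with compound at room temperature in 100 mM sodium acetate pH 5.5, 5 mM DTT, 0.00005% Triton X-100. Reaction started with 2 uM Z-FR-AMC; AMC fluorescence increase over 60 s gives rate.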
SARS PLP yeast – blocks SARS-CoV papain-like protease in a yeast assay; Potency, µM (doses to about 32.9 µM), for inactives: top-dose activity, positive = growth rescue; S. cerevisiae expressing SARS-CoV PLpro, growth rescue; control for the full effect not named in the record; actives 0.19% (n = 330,000); further: 0% is about no effect; nearly all actives have a fitted effect of over 55% in size; growth read by luminescence after 48 h
Cruzain Triton – inhibitors of Trypanosoma cruzi cruzain with detergent | purified cruzain, Z-FR-AMC fluorescence, 0.01% Triton | Potency, µM, for inactives: max response, negative = inhibition, hits mostly inhibitors | P25779 | actives 0.43% (n = 200,000); active means well fitted curve in the direction sought with a large enough effect; inconclusive means small, poorly fitted or top-dose-only effect, or another doubt; inactive means no such curve, though single readings can be large; an effect the other way counts as inactive or inconclusive;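 further: plate controls were neutral wells for no effect and buffer without enzyme for full effect; nearly all actives have a fitted effect of over 40% in size; top concentration of the series not given in the record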
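Cruzain (1.5 nM) preincubated 15 min at RT with compound in 100 mM sodium acetate pH 5.5, 5 mM DTT, 0.01% Triton X-100. Reaction started with 2 uM Z-FR-AMC; AMC fluorescence (ex 360/em 450 nm) change over 60 s gave rate.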
StopGo reporter – lowers the luciferase signal of an FMDV 2A StopGo reporter | actives 1.2% (n = 410,000) | Potency, µM (series often up to 57.9 µM), inactives show at the highest dose signal change, negative = less light | AID 1159524 | human cells with a luciferase reporter of 2A StopGo recoding; control for the full effect not named in the record; active = well fitted falling curve with a large enough effect; inconclusive = small, poorly fitted or top-dose-only effect; inactive = no such curve, though single readings can be large or run the other way; tested in HEK293T cells; further: on the % scale 0 is the no-effect control and ±100 the full control effect; nearly all actives have a fitted effect of over 45% in size; luciferase light after 4 h
MARV entry inh – Marburg virus entry inhibition; Marburg virus pseudotyped entry inhibition, cell reporter; control for the full effect not named in the record; about a third of the inactives were read at about 46 µM; actives 1.8% (n = 300,000); Potency, µM (highest dose often 37.8 µM), without a hit: at the highest dose activity change, negative = inhibition, hits mostly inhibitors; AID 540276; active = well fitted inhibition curve with a large enough effect; inconclusive = small, poorly fitted or top-dose-only effect, or effect the other way; inactive = flat fitted curve, though single readings scatter; tested in HEK293 cells; about a fifth of its hits are not listed in these tables; further: on the % scale 0 is the no-effect control and ±100 the full control effect; luciferase read-out
The depositor's hits bear a star; ? = inconclusive; nt = not tested or not shown; & = joins results of further samples; [ ] = another dose, or the depositor's remark. Unless noted, the call rests on the fitted dose curve; in most records, active means well fitted rising curve with a large enough effect; inconclusive means small, poorly fitted or top-dose-only effect; inactive means no such curve, though single readings can be large or run the other way. Potency means the concentration at half of the fitted maximal effect. Outcome played no part in choosing rows; any-hit rate near 4.7%.

SMILES | Lassa entry inh | RE007 growth inh | NS1 inh | Cruzain noTriton | SARS PLP yeast | Cruzain Triton | StopGo reporter | MARV entry inh
COC(=O)c1ccccc1NC(=O)Cn1cnc2c1c(=O)n(C)c(=O)n2C | -14.8% | -12.6% | -3.3% | nt | nt | nt | ? | -6.0%[46.1 µM]
COC(=O)CCCNS(=O)(=O)c1ccc2ccccc2c1 | -1.4% | 6.4% | 0.8% | 10.5% | 5.0% | 0.0% | 41.5%[activator] | 0.3%[46.1 µM]
C[C@@H]1NC(=O)c2cc([N+](=O)[O-])cc(I)c2NCCCC[C@@H](C(N)=O)NC(=O)[C@H](CCC(=O)O)NC1=O | 6.8% | -7.4% | 26.8% | 26.1% | 2.0% | -12.8% | -4.6% | 4.6%
CC1CCCN(CCCNC(=O)c2ccc(N3CCCC3=O)cc2)C1 (stereo not given) | 19.1%[46.1 µM] | 0.0% | 5.6% | nt | -4.2% | nt | 7.4% | 21.3%[46.1 µM]
COc1ccccc1-n1c(SC)nc2c(sc(=S)n2-c2ccccc2)c1=O | 22.5%[46.1 µM] | -3.0% | 3.1% | nt | 1.5% | nt | -8.8% | 2.2%[46.1 µM]
O=C(CC1SC(N2CCCCC2)=NC1=O)Nc1ccc(C(=O)Nc2ccccc2)cc1 (stereo not given) | 21.5% | -11.2% | nt | nt | 2.4% | nt | 2.1% | ?
O=C(NCCCNC(=O)c1ccccn1)c1ccc(Cl)cc1 | 7.1%[46.1 µM] | 8.8% | 5.2% | nt | -0.2% | nt | 15.7% | 13.0%[46.1 µM]
O=C1CCCCN1CCC(=O)N1CCCC(N2CCN(c3cccc(Cl)c3)CC2)C1 (stereo not given) | 0.4% | 2.6% | 3.7% | nt | -1.4% | nt | 20.5% | 21.6%
COc1ccc(Cc2nc3ccc(C(=O)NCC4CCOCC4)cc3o2)cc1OC | 15.9% | -22.2% | -1.4% | nt | 3.7% | nt | 6.4% | 1.3%
C=CCN(CC=C)C(=O)c1ccc(OC2CCN(S(=O)(=O)N(C)C)CC2)cc1 | ? | 10.3% | -4.8% | nt | -2.0% | nt | 15.5% | 0.4%[46.1 µM]
CCOc1ccccc1C(=O)Nc1ccc(C(=O)c2ccccc2)cc1 | nt | -2.2% | 12.9% | nt | 3.8% | nt | 15.1% | nt
COc1ccccc1N(CC(=O)N/N=C(\C)c1ccccc1O)S(=O)(=O)c1ccc(C)cc1 | ? | 21.1% | -10.3% | nt | -7.8% | nt | 15.6% | ?
N#Cc1ccc(NC(=O)CN2CCN(c3ccccn3)CC2)cc1 | nt | 3.2% | 8.1% | nt | 2.0% | nt | -14.4% | nt
CCCCN(CC)CCNC(=O)C1CCCN(S(=O)(=O)c2cccc3nsnc23)C1 (stereo not given) | -6.6%&-1.5%[46.1 µM] | -22.6% | 9.0% | ? | 5.8% | ? | 3.2%&-6.5% | ?
CC(=O)Nc1ccc(N2C(=O)CSC2c2cccc([N+](=O)[O-])c2)cc1 (stereo not given) | 11.9% | 0.7% | nt | nt | -3.7% | nt | -6.3% | 5.3%[46.1 µM]
COc1cc(C(C)=O)ccc1COc1ccc(C(=O)O)cc1OC | 0.0% | 10.7% | 1.4% | nt | 0.2% | nt | -17.8% | 5.2%[46.1 µM]
Cc1ccccc1NC1=NC(=S)N(CC(N)=O)C12CCOC(C)(C)C2 (stereo not given) | 1.0% | -8.6% | -6.0% | nt | 0.5% | nt | -10.4% | 0.7%[46.1 µM]
O=C(c1cc2ccccc2oc1=O)N1CCSC1c1ccco1 (stereo not given) | 0.1% | -2.6% | 2.2% | -8.9% | 4.2% | -0.8% | 7.2% | 5.6%
COC(=O)c1ccsc1NC(=O)C1COc2ccccc2O1 (stereo not given) | nt | -12.7% | -9.7% | -27.7% | -17.9% | -8.7% | -25.5% | nt
C=CCn1c(SCC(=O)O)nnc1-c1cccs1 | -4.9% | -3.2%[3.69 µM] | 6.6% | -0.2% | -1.6% | 1.5% | 0.3% | 13.0%
CNC(=O)c1c(NC(=O)c2nc3ccccc3s2)sc2c1CCC2 | nt | nt | 2.9% | ? | -2.3% | -12.2% | nt | 2.6%
CN(C)c1cc[n+](CC(=O)Nc2ccccc2C(F)(F)F)cc1 | 9.9%[46.1 µM] | -10.5% | -12.7% | nt | 0.0% | nt | 12.8% | ?
O=C(C1CC1)N1N=C(c2ccc(Br)cc2)CC1(O)C(F)(F)F (stereo not given) | nt | -11.6% | -11.7% | nt | 1.8% | nt | -3.6% | nt
O=C1NC2(CCCc3ccccc32)C(=O)N1Cc1nnc(-c2ccccc2Br)o1 (stereo not given) | 7.2% | -17.3% | -3.2% | -27.4% | -3.7% | -1.9% | ? | -3.3%
CCN(CC)CCNC(=O)C1CCC(=O)N(c2ccc(OC)cc2)C1c1ccc(F)cc1 (stereo not given) | 8.3% | 0.3% | 0.6% | -3.9% | 1.6% | -8.4% | -1.9% | 20.9%

(continued)
SMILES | Lassa entry inh | RE007 growth inh | NS1 inh | Cruzain noTriton | SARS PLP yeast | Cruzain Triton | StopGo reporter | MARV entry inh
O=C1CCCC2=C1C(c1ccc(O)c(O)c1)Nc1ccc3ccccc3c12 (stereo not given) | ? | 0.4% | nt | nt | nt | nt | -1.9% | ?
CCN1C(=NCc2cc(OC)c(OC)c(OC)c2)N[C@@H](c2cccc(C(F)(F)F)c2)C(C(=O)OC)=C1C | nt | 1.5% | 25.6% | nt | 2.9%&10.4% | nt | -7.6% | nt
COc1cccc(N2CCN(C(=O)CN(C)S(=O)(=O)c3ccc4c(c3)c(=O)n(C)c(=O)n4C)CC2)c1 | -15.1%[46.1 µM] | -16.1% | nt | nt | 1.3% | nt | ? | -15.3%[46.1 µM]
Cc1ccc(NC(=O)c2c(NC(=O)c3ccc(F)cc3)sc3c2CCCC3)cc1C | -3.6%[46.1 µM] | nt | nt | 0.5% | nt | -2.3% | 45.2%[activator] | nt
CCOC(=O)c1c(-c2ccc(C)cc2)csc1NC(=O)/C(C#N)=C/c1ccc(O)c(OC)c1 | -28.4% | 1.1% | 20.7% | 5.7% | 6.2% | 1.4% | ? | ?
COc1ccccc1C(CNC(=O)c1ccc(NS(=O)(=O)c2ccc3c(c2)OCCO3)cc1)N(C)C (stereo not given) | 14.9% | -6.7% | nt | nt | -1.5% | nt | -10.7% | -22.9%
O=C(OCC(=O)N1CCN(S(=O)(=O)c2ccc(Cl)cc2)CC1)c1cccc(OC(F)F)c1 | 22.5%[46.1 µM] | -3.1% | nt | nt | 1.4% | nt | ? | -19.5%
O=C(Nc1cccc(Cl)c1)Nc1ccnc(-c2cccnc2)n1 | 11.1%[46.1 µM] | -6.6% | 4.0% | nt | 1.3% | nt | ? | ?
CCn1c(COc2ccc(=O)n(-c3ccccc3)n2)nnc1SCc1ccccc1C | -16.4% | 12.6% | -23.9% | 5.3% | 1.4% | -1.9% | -20.0% | -20.1%
CCOc1ccccc1NC(=O)CSc1nncc2ccccc12 | ? | -12.2% | -35.8% | nt | 0.0% | nt | -19.9% | ?
O=C(O)c1ccccc1N1C(=O)C2C3CCC(C3)C2C1=O (stereo not given) | 9.5% | 21.3% | 3.1% | nt | 1.1% | nt | 17.2% | 28.2%[46.1 µM]
Cc1ccc(NC(=O)CSc2nnc(CNC(=O)c3ccccc3F)o2)cc1 | 0.4%[46.1 µM] | 8.8% | nt | nt | -0.2% | nt | -7.1% | 9.3%[46.1 µM]
ClC1(Cl)CC1Cn1c(C2CC2)nc2ccccc21 (stereo not given) | nt | -16.3% | -2.1% | nt | -0.3% | nt | -25.4% | nt
Cc1ccccc1Nc1nc2ccccc2n1C(C)C | 1.9% | -9.8% | -8.0% | 9.0% | 14.6% | -0.6% | -7.7% | 14.6%
CC(C)(C)SCCNC(=O)CSCc1ccc([N+](=O)[O-])cc1 | -29.2% | 9.8% | -1.7% | -2.2% | -4.3% | 0.4% | -11.2% | -13.2%
Nc1ccccc1C(=O)NCc1ccco1 | ? | 6.7% | -6.5% | nt | -2.6% | nt | 2.0% | 2.1%&2.1%[46.1 µM]
Cc1ccc(-c2cc(C(F)(F)F)c(C#N)c(SCC(=O)Nc3ccccc3F)n2)cc1 | ? | nt | nt | -1.5% | nt | -0.8% | 18.7% | 11.4%[46.1 µM]
CCc1nn2c(=O)cc(COC(=O)c3ccc(NC(=O)CCc4ccccc4)cc3)nc2s1 | 10.1%[46.1 µM] | nt | nt | -13.0% | nt | 0.9% | -12.2% | nt
COCCNC(=O)CSc1nnc(-c2ccc(OC)c(OC)c2)c(-c2ccc(OC)c(OC)c2)n1 | 2.2%[46.1 µM] | nt | nt | 18.1% | nt | -0.9% | -9.0% | nt
CN(CC(=O)Nc1ccc(C(N)=O)cc1)CC(=O)Nc1ccccc1Cl | 16.0% | 4.7% | 6.0% | 9.6% | 12.9% | -0.1% | -16.0% | ?
COc1ccc(OC)c(Nc2nc3ccccc3nc2-n2nc(C)cc2C)c1 | 24.4%[46.1 µM] | nt | nt | -2.7% | nt | -3.3% | -13.4% | -2.9%[46.1 µM]
Cc1ccc2nc(SCC(=O)Nc3ccc(F)cc3F)nc(=O)n2c1 | -0.3% | 7.8% | nt | nt | -5.9% | nt | 0.0% | ?
CC1(C)Oc2ccc(C(=O)N3CCOCC3)cc2N(CC(=O)Nc2ccccc2)C1=O | -1.3% | 24.2% | -1.3% | -4.8% | 3.3% | -1.4% | 22.4% | -26.3%[46.1 µM]
O=C1CNC(=S)N1Cc1ccc(Cl)cc1 | 25.2%[46.1 µM] | -10.4% | 6.9% | nt | -0.2% | nt | -3.0% | -1.6%[46.1 µM]
CCOc1ccc(S(=O)(=O)N2CCCCC2)cc1NC(=O)CN1C(=O)NC(C)(c2ccc(C)cc2)C1=O (stereo not given) | ? | -2.9% | nt | nt | -1.3% | nt | 0.3% | ?
COCCCn1c(Cc2ccccc2)nnc1SCC(=O)N1CCCCC1 | ? | 5.6% | -2.9% | 4.1% | 1.8% | 8.4% | -1.8% | 11.4%
O=C(c1ccc([N+](=O)[O-])cc1)N1CCSC1c1ccc(Br)cc1 (stereo not given) | 9.1% | 12.4% | nt | nt | -5.0% | nt | -23.7% | ?
COc1ccc(CCNC(=O)Cc2ccsc2)cc1 | nt | -8.0% | 5.7% | nt | 2.2% | nt | 9.9% | nt
